Source: PubChem (National Center for Advancing Translational Sciences (NCATS))
gsp antag: gsp mutant antagonism. actives 0.4% (n = 340,000). AID 624288. gsp-mutant cells, cAMP HTRF, 30 min; control for the full effect not named in the record. Potency, µM (top dose mostly 76.9 µM), for the others: top-dose activity change, negative = inhibition, most hits filed as inhibitors; active = falling curve of any shape with a large fitted effect; inconclusive = falling curve, mostly with a smaller effect; inactive = flat or rising curve; cell line not stated here;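 note: intracellular cAMP measured with PDE inhibitor Ro 20-1724 present during compound exposure; potency is the fitted concentration of half-maximal effect; % is set by controls: 0 for no effect and ±100 for the full control effect; nearly all actives have a fitted effect of over 65% in size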
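Cells in G418 medium, seeded 16-24 h, 37C; buffer exchange to DPBS + 1 mM CaCl2, 0.5 mM MgCl2, 0.05% BSA; cpds in DMSO + […] (300 uM stock), 30 min 37C; HTRF cAMP detection.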
gsp agonist: agonists of gsp mutant (McCune-Albright syndrome); AID 624287; actives 0.13% (n = 340,000); gsp mutant cells, cAMP HTRF, 30 min; control for the full effect not named in the record; Potency, µM (doses to about 76.9 µM), for inactives: at the highest dose activation (cAMP increase), actives largely listed as activators; active = well fitted activation curve with a large enough effect; inconclusive = small, poorly fitted or top-dose-only effect, or another doubt; inactive = no such curve, though single readings can be large or run the other way; cell line not stated here;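 note: phosphodiesterase inhibitor Ro 20-1724 added with compounds to block cAMP breakdown; potency is the fitted concentration of half-maximal effect; nearly all actives have a fitted effect of over 60% in size; about a fifth of the inactives were tested at one dose only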
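Cells stably selected in G418 were plated at 2000/well, grown 16-24 hr, then given compounds in DMSO with the PDE inhibitor […] (300 uM solution added) for 30 min at 37C; cAMP was read by HTRF.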
TRPV1 PAM: human TRPV1 potentiation; TRPV1-expressing cells, Fluo-8 calcium influx, capsaicin EC20 potentiation; host cell line not named in the record; control for the full effect not named in the record; potentiation, % at 8.33 µM; actives 0.02% (n = 320,000); AID 540277; active means potentiation above 80%; inconclusive means 30% to 80%; inactive means below 30%; note: 0% is about no effect
Target sequence (Q8NER1 whole entry, looked up): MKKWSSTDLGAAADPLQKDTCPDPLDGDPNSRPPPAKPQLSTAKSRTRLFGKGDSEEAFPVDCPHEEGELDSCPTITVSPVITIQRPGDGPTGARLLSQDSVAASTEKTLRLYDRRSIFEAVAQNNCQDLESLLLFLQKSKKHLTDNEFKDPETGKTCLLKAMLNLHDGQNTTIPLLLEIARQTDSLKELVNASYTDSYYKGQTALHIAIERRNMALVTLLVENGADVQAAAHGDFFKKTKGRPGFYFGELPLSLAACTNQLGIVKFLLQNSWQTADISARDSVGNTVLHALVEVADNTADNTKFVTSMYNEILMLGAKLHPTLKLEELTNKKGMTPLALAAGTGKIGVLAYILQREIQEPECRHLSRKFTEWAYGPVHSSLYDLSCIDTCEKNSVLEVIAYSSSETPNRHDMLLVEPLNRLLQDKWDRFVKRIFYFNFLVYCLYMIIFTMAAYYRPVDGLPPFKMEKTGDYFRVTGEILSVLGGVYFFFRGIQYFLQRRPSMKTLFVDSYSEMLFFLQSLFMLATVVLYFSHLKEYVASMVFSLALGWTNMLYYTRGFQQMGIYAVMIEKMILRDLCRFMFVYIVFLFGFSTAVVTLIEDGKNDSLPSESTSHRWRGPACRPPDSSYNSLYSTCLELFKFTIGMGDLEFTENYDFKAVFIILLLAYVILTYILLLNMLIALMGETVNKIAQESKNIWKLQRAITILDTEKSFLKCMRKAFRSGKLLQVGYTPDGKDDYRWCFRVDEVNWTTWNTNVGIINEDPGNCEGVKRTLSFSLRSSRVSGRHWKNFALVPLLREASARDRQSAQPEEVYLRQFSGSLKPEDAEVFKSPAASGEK
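Cells expressing TRPV1 were dye-loaded with Fluo-8 and read kinetically: 10 s baseline, 3 min after compound (agonist portion), then 2 min after EC20 capsaicin (allosteric enhancer portion). Calcium-bound dye fluorescence at 480/520 nm.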
Menin MLL FP FL: inhibitors of human menin-MLL interaction, wild-type MLL peptide | Fluorescence polarization, fluorescein-MLL peptide displacement from menin | FP activity change, % at 61.4 µM | 290,000 tested, under 10 active | AID 1766; inconclusive = falling polarisation curve, or a change in total fluorescence; inactive = total fluorescence flat and polarisation flat or rising; no compound was filed as active; the % refers to the polarisation; negative = inhibition;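 note: % of control where 0% means no effect; inhibitors lower the polarisation; unlabelled MLL peptide was the positive control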
Sfp inh: inhibitors of Bacillus subtilis Sfp phosphopantetheinyl transferase. Q9F4F7. Biochemical Sfp PPTase activity, qHTS. Potency, µM, for inactives: max response, negative = inhibition, actives largely listed as inhibitors. actives 3.5% (n = 310,000). AID 1490; active = well fitted inhibition curve with a large enough effect; inconclusive = small, poorly fitted or top-dose-only effect, or another doubt; inactive = no such curve, though single readings can be large or run the other way;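 note: the enzyme is Sfp with the accession as filed and its product quenches rhodamine fluorescence; potency is the fitted concentration of half-maximal effect; 0% = enzyme reaction without inhibitor and -100% = no enzyme wells; top concentration of the series not given in the record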
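Reaction rates are the 30-min fluorescence difference (ex 525, em 598 nm) in wells containing 15 nM Sfp, 5 uM rhodamine-CoA and 12.5 uM BHQ-2-YbbR at pH 7.6 with 10 mM MgCl2.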
ClpP mod: qHTS Assay for Activators of ClpP | ATP-dependent Clp protease proteolytic subunit (Bacillus subtilis (strain 168)), P80244 | purified B. subtilis ClpP, FRET peptide cleavage, 20 min | Potency, µM (highest dose often 57.5 µM), inactives show at the highest dose activity change, negative = active | actives 1.9% (n = 340,000) | AID 651965, 2013; active = well fitted falling curve with a large enough effect; inconclusive = small, poorly fitted or top-dose-only effect; inactive = no such curve, though single readings can be large or run the other way; note: potency is the fitted concentration of half-maximal effect; the source files actives as falling curves though it sought activators and does not explain the sign; nearly all actives have a fitted effect of over 65% in size; many hits overshoot -100%
Target sequence (P80244 whole entry, looked up): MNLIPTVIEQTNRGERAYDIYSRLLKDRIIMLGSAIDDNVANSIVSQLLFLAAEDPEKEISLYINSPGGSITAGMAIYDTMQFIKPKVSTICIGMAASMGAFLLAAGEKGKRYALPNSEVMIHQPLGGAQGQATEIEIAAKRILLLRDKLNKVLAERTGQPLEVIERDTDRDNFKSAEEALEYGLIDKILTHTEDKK
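Buffer: 100 mM Tris/HCl pH8, 100 mM KCl, 0.05% low protease BSA, 2.5% glycerol, 0.01% Tween-20. ClpP 10 microg/mL final; 20 min RT; delta FRET normalized to ADEP and DMSO controls.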
CtBP-E1A inh: blocks the CtBP interaction with E1A; AlphaScreen GST-E1A/His-CtBP binding, 1536-well; hits give low values; control for the full effect not named in the record; activity change, % (concentration not given with the values); actives 0.49% (n = 340,000); AID 651724; in the data active means activity change below about -65%; inconclusive means about -30% to -65%; inactive means above about -30%; note: % is set by controls: 0 for no effect and ±100 for the full control effect
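Protein mix (5X: 125 nM each GST-E1A, His-CtBP) was incubated with pinned compound 2 h at 37 deg C in dark, in 50 mM Tris pH 8.0 buffer with 300 mM NaCl. Glutathione donor and nickel acceptor beads followed; AlphaScreen signal read after 1 h.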
* = called active by the depositor; ? = inconclusive; / = no result given; & = joins results of further samples; [ ] = another dose, or the depositor's remark.

Values run as follows: gsp antag, gsp agonist, TRPV1 PAM, Menin MLL FP FL, Sfp inh, ClpP mod, CtBP-E1A inh
- COc1cc(/C=N/Nc2ccc(F)cc2F)cc(OC)c1O
    1.6%, 9.9%, 1.0, 0.4, -39.2%, -11.6%, -6.1
- COc1ccc(CNS(=O)(=O)c2ccc(-c3cnc(C4CC4)o3)cc2)cc1
    -12.1%, 31.4%, 21.2, /, 10.9%, 3.2%&4.0%, -12.8
- CC(OC(=O)C1CCCC1)C(=O)Nc1ccc(C(N)=O)cc1 (stereo not given)
    11.5%, -48.5%[15.4 µM], -15.5, /, /, /, 0.0
- O=C(NCc1ccncc1)/C(=C\c1ccc(F)cc1)NC(=O)c1ccccc1
    7.6%, -1.6%, -4.0, 3.1, 9.4%, 1.1%, /
- Nc1nc(-c2ccc(Cl)cc2)nn1C(=O)c1ccco1
    4.5%, 6.4%, -3.2, -2.3, 17.5%, 3.8%, -5.3
- Cc1ccc(Nc2nc(N/N=C\c3ccc4c(c3)OCO4)nc(N3CCOCC3)n2)cc1
    /, -2.4%[15.4 µM], 5.6, -0.6, 21.1%, /, -4.7
- COC(=O)CSc1snnc1-c1ccc(F)cc1
    -6.9%, -0.4%, 2.9, -0.1, -4.1%, -1.3%, 10.9
- C[C@H]1CN([C@@H](C)CO)C(=O)c2cc(/C=C/c3ccccc3)cnc2O[C@H]1CN(C)C(=O)c1cccc(F)c1
    /, -34.6%[inhibitor], /, /, /, 4.6%, 6.0
- CCc1ccccc1NC(=O)c1cc(-c2cccs2)on1
    -20.3%, 12.2%[15.4 µM], -13.6, -0.9, 2.9%, /, 6.6
- CCOC(=O)N1CCc2c(sc3c2c(=O)n(Cc2ccccc2)c(=O)n3Cc2cccc(C)c2)C1
    -5.9%, -7.0%, -4.8, -0.6, 2.7%, -1.5%&-9.1%, 1.0
- COc1ccc(NC(=O)C23CC4CC(C2)CC(n2cnc(Br)n2)(C4)C3)cc1Cl
    ?, -2.6%, -2.5, 0.0, -10.6%, 0.9%, ?
- CCN1C(=O)[C@@H]2Cc3c([nH]c4ccccc34)C(c3ccc(OC)cc3)N2C1=S (stereo not given in full)
    -12.8%, -22.3%, -0.8, ?, 10.7%, -2.3%, /
- C=CCn1c(=O)[nH]c2cc(C(=O)N3CCN(c4ccc(C(C)=O)cc4)CC3)ccc2c1=O
    -23.5%, -21.2%, 1.0, 4.4, -1.6%, -10.3%, 3.0
- Cc1noc(NS(=O)(=O)c2ccc(NC(=O)c3ccc(N(C)C)cc3)cc2)c1C
    -14.4%, 8.6%, -13.6, /, /, ?, /
- COc1cc(C(=O)NCC(=O)NCCCSc2ccccc2)cc(OC)c1OC
    -5.9%, -1.1%, 3.7, /, /, 0.0%, 1.7
- Cc1ccc(S(=O)(=O)N2CCOCC2)cc1NC(=O)c1cc(-c2ccccn2)nc2ccccc12
    -0.8%, ?, 11.8, 3.1, 0.4%, -3.6%, -2.0
- O=C(Cn1nc(C(F)(F)F)c2c1CCC2)NCc1ccc(Cl)cc1
    -5.8%, -3.4%, ?, 4.3, 9.4%, 0.7%, 4.8
- CCCCNC(=O)COc1ccccc1C(=O)c1cc(C#N)c(=O)n(CCOC)c1
    -13.8%, 8.5%, -11.7, 2.1, 1.2%, -2.7%, 14.1
- C[C@H](CO)N1C[C@H](C)[C@@H](CN(C)Cc2cccnc2)Oc2cc(-c3cccnc3)ccc2S1(=O)=O
    /, 1.0%, /, /, /, 1.2%, 5.6
- CC(=O)c1cc(C)ccc1OC(=O)c1cccnc1
    7.0%, -11.3%, 3.8, -1.8, 22.3%, -1.9%, 3.6
- CC(C)n1c(C(F)(F)F)nc2cc(C(=O)N3CCC(O)CC3)ccc21
    11.8%, 24.9%, -1.7, -2.3, 5.7%, /, -6.4
- CCCn1c(C(O)c2ccc(OC)c(OC)c2)nc2ccccc21 (stereo not given)
    8.2%, 8.1%, 0.2, 0.0, 13.9%, 0.5%, 2.2
- COCCn1c(=S)[nH]c2cc(C(=O)N3CCN(Cc4ccc5c(c4)OCO5)CC3)ccc2c1=O
    -20.2%, 2.7%, -13.3, 3.6, -7.0%, -4.0%, 0.2
- COC(=O)/C(C#N)=C/c1occc1C
    2.1%, -4.7%, 5.4, 8.3, 11.2%, 2.8%, 17.7
- O=C(NCCNCc1ccc(F)cc1)c1ccco1
    6.8%, 14.6%, -7.2, 3.2, -21.2%, -0.4%, 4.2
- Cc1nn(C)c(C)c1CN(C(=O)C1CCC(=O)N(C2CCCCCC2)C1)C(C)C (stereo not given)
    13.0%, -2.2%, -7.4, /, 20.4%, 0.5%, 0.8
- CC(=O)NCCn1c(SCc2cccc([N+](=O)[O-])c2)nc2ccccc2c1=O
    -7.4%, 0.1%[15.4 µM], -5.8, -0.2, 10.8%, /, 8.0
- C[C@H](CO)N1C[C@H](C)[C@@H](CN(C)S(=O)(=O)c2ccc(F)cc2)OCc2cnnn2CCCC1=O
    /, -41.6%[inhibitor], /, /, /, -1.2%, -0.3
- Cc1ccc2cc3c(N)c(C(=O)N4CCOCC4)sc3nc2c1
    23.9%, -33.3%[inhibitor], -21.2, 6.6, -4.4%, -0.8%, -0.9
- Cc1cc(C)cc(NC(=O)C(OC(=O)c2sccc2C)c2ccccc2)c1 (stereo not given)
    -8.5%, -19.0%[15.4 µM], -7.1, 2.9, -2.7%, 0.5%, 5.5

Reprinted from above for reference:
Values run as follows: gsp antag, gsp agonist, TRPV1 PAM, Menin MLL FP FL, Sfp inh, ClpP mod, CtBP-E1A inh
- Cc1ccc(S(=O)(=O)N2CCOCC2)cc1NC(=O)c1cc(-c2ccccn2)nc2ccccc12
    -0.8%, ?, 11.8, 3.1, 0.4%, -3.6%, -2.0
- O=C(Cn1nc(C(F)(F)F)c2c1CCC2)NCc1ccc(Cl)cc1
    -5.8%, -3.4%, ?, 4.3, 9.4%, 0.7%, 4.8
- CCCCNC(=O)COc1ccccc1C(=O)c1cc(C#N)c(=O)n(CCOC)c1
    -13.8%, 8.5%, -11.7, 2.1, 1.2%, -2.7%, 14.1
- C[C@H](CO)N1C[C@H](C)[C@@H](CN(C)Cc2cccnc2)Oc2cc(-c3cccnc3)ccc2S1(=O)=O
    /, 1.0%, /, /, /, 1.2%, 5.6

(more compounds)
Values run as follows: gsp antag, gsp agonist, TRPV1 PAM, Menin MLL FP FL, Sfp inh, ClpP mod, CtBP-E1A inh
- COc1cccc2c1cc1c(=O)n(CC(=O)NCCCN3CCN(C)CC3)nc(C)n12
    -3.7%, -3.9%, -11.7, /, 10.1%, ?, /
- CCn1c(O)c(C=NC2CCCC(C)C2C)sc1=S (stereo not given)
    -28.9%, -10.8%[15.4 µM], -8.9, -1.7, -9.1%, /, -20.6
- O=C(O)CCC(=O)Nc1ccccc1C(=O)NCCc1ccccc1
    7.5%, 0.7%, -1.2, 1.5, 9.8%, 14.1µM*, 8.3
- Cn1cccc1CNC1CCCC1
    10.0%, -54.8%, -7.4, -0.2, 10.7%, 1.3%, 14.1
- N=C1/C(=C/c2ccco2)C(=O)N=C2SC(CC(=O)N3CCCC3)=NN12
    11.7%, 1.8%, -1.2, 2.9, 5.2%, -1.1%, -2.4
- c1cncc(-c2nc(NCCCN3CCOCC3)c3c4c(sc3n2)CCC4)c1
    -0.5%, 9.4%[15.4 µM], -9.8, -1.0, -12.0%, /, -14.5
- Cc1ccc(S(=O)(=O)N/N=C/c2ccc(OCC(=O)Nc3ccccc3Cl)cc2)cc1
    -9.9%, 3.1%[15.4 µM], ?, 3.9, 1.7%, 0.0%, -0.5
- CN(C)C(=S)Nc1ccc(Br)c(Cl)c1
    -6.6%, -2.3%[15.4 µM], /, 1.2, 3.4%, /, -0.7
- O=C(O)COc1ccccc1/C=C1\C(=O)Nc2ccc(Br)cc21
    2.7%, -9.3%[15.4 µM], 2.0, 3.0, 18.8%, 25.1µM*, -0.2
- N=c1ccn(Cc2ccc(F)cc2)cc1
    -0.6%, 8.9%, 1.5, 0.5, -19.9%, -3.7%, /
- CC1CCN(C(=O)CCCN2C(=O)c3cccnc3Oc3ccc(Cl)cc32)CC1
    -6.3%, -6.7%, 5.3, -8.0, 6.1%, /, -2.4
- O=C(COC(=O)CNC(=O)c1sc2ccccc2c1Cl)NC1CCS(=O)(=O)C1 (stereo not given)
    1.9%, ?, 1.0, /, /, -4.2%, 18.5
- CCC1CCC/C1=N\NC(=O)c1ccc(Cl)cc1 (stereo not given)
    7.8%, -0.8%, /, /, /, 0.5%, /
- Cc1nn2c(Nc3ccccc3)c3c(nc2c1-c1ccccc1)CCC3
    -5.5%, 20.2%, ?, /, -2.6%, ?, -1.3
- COC(=O)CCN1CCN(S(=O)(=O)c2ccccc2Br)CC1
    8.2%, -6.1%[15.4 µM], -1.2, 1.7, ?, 1.2%, 1.2
- C=CCC[C@@H](Cc1ccc(F)cc1)C(=O)OC[C@H]1CCCN1C(=O)[C@@H](CC=C)CC(=O)N[C@H](CO)Cc1ccccc1
    -25.8%, /, /, /, /, 0.4%, -0.4
- O=C1C=C(N2CCOCC2)CO1
    -4.4%, /, /, /, /, -1.4%, -9.6
- Cc1ccc(C)c2sc(NC(=O)C3CC3)nc12
    -2.9%, -19.4%, 6.6, 0.7, 11.6%, -1.2%, 0.0
- CC1(C(=O)O)CCC(C(=O)NC2CCCCC2)C1(C)C (stereo not given)
    -1.2%, 29.6%, 0.6, 2.2, 16.9%, -1.0%, 2.8
- CCCOc1ccc(-c2c(C(=O)N/N=C(\C)COc3ccccc3)nnn2-c2nonc2N)cc1
    -24.5%, ?, -18.9, -1.1, 21.6%, -5.9%, 5.5
- CC[C@H](C)[C@H]1CNC(=O)C(=O)N1CC1CCN(CCc2ccccc2)CC1
    7.1%, /, /, /, /, 0.1%, 5.3
